Screening results from PubChem BioAssay.
PrP 5UTR inh: inhibition of PrP 5' UTR reporter expression; inhibition, % (no concentration beside the values); cell-based PrP 5' UTR mRNA reporter, plate reader; 0.35% of 340,000 active; AID 488862;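 active means every replicate at 50% or more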;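 further: 0 = median of the neutral control wells; tested in H4 reporter cells; numbers are from one replicate; inactives centre near -14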
Mtb hypoxia inh: reduces hypoxia-regulated biosensor signal in M. tuberculosis; M. tuberculosis hypoxia-regulated fluorescent reporter, fluorescence; fluorescence inhibition, % (no concentration beside the values); 0.1% of 300,000 active;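 active means 35 to 45% if threefold the growth effect, above 45% if 1.5-fold the growth effect; inactive means the rest, general growth blockers included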;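 further: wells of about 50 µL received 100 nL stock; 0% = vehicle wells and 100% = reference inhibitor wells; whole bacteria with a GFP reporter of the hypoxia response; strong numbers were not always called active; many hits fall short of the cut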
ugtP null kill: kills S. aureus RN4220 lacking UgtP; S. aureus RN4220 ugtP deletion, OD600 growth, 16 h; some inactives read as strong as hits; 0.54% of 330,000 active; AID 1259309; growth inhibition, % (no concentration beside the values);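 active means z-score under -3 and OD600 up to 0.15 on both plates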;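 further: plate controls were untreated wells for no effect and antibiotic for full effect; wells of about 80 µL received 100 nL stock; the first replicate is given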
RN4220 kill: kills Staphylococcus aureus RN4220. 0.33% of 330,000 active. S. aureus RN4220 growth, OD600, 16 h. inhibition, % (no concentration beside the values). AID 1259311;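 active means z-score of -3 or lower and OD600 up to 0.18 on both plates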;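 further: plate controls were untreated cells for no effect and reference antibiotic for full effect; stock transfer was 100 nL into about 80 µL; one replicate is shown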
BJeLR lethal: kills HRASV12-expressing BJeLR cells; BJeLR (HRASV12) viability, CellTiter-Glo ATP luminescence, 48 h; reference of the scale not given here; inhibition, % (test concentration not listed); 0.17% of 300,000 active; AID 1554;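 active means replicate mean above 50%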;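 further: 50 nL library stock added to about 25 µL; numbers are from one replicate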
Autofluor counter: flagged as autofluorescent in microsphere protease counterscreen; compound autofluorescence counterscreen, microsphere flow cytometry; stronger effect = higher value; fluorescence intensity (test concentration not listed); 3.1% of 360,000 active;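 active means at least 3 SD above the mean of all compounds, about 16000 in these data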;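 further: 100 nL of 1 mM stock went into each well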
Mtb hypoxia inh growth: second read-out of Mtb hypoxia inh, no call of its own (marks repeat the call); growth inhibition, %; measured here: M. tuberculosis growth (absorbance);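 0% = vehicle and 100% = reference antibiotic; read after six days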
Numbers without * were called inactive; · = no result given.

SMILES	PrP 5UTR inh	Mtb hypoxia inh	Mtb hypoxia inh growth	ugtP null kill	RN4220 kill	BJeLR lethal	Autofluor counter
COCC(C)n1c(C)cc(C(=O)CSc2nc(C)c(C)c(C)n2)c1C (stereo unspecified)	-15	-6	6	-8	-1.6	-1	4760
CC(=O)c1ccc(OCc2cc(C(=O)N3CCN4CCCC4C3)no2)cc1 (stereo unspecified)	-1	4	4	0	4.4	-5	5785
O=c1[nH]c(=S)n(CCC2=CCCCC2)c(O)c1C=NCCCn1ccnc1	-6	2	-2	3	0.4	-1	·
O=C(Nc1ccc2c(c1)CCC2)c1cnc(Cl)c(Cl)c1	-104	-2	9	-3	4.2	5	3979
CNC(=O)c1nnsc1S(=O)c1ccc(Cl)cc1 (stereo unspecified)	-8	20	19	100*	99*	23	4639
Cn1c(SCC(=O)N2CCCC2)nc2ccccc21	-33	1	5	12	7.2	-22	3991
COc1ccc(C(OC(=O)c2ccco2)C(=O)NC2CCCCC2)cc1 (stereo unspecified)	-5	4	4	-4	2.9	3	4034
COc1ccc(Oc2cc(C)c3cccc(C)c3n2)cc1	-11	·	·	96*	-5.7	-15	2052
CCc1nnc(NC(=O)c2oc3ccc(Br)cc3c2C)s1	-80	1	0	-14	11	·	3422
CC(C)CCn1c(SCC(=O)c2ccccc2)nc2c1c(=O)[nH]c(=O)n2C	-2	14	13	-7	7.7	4	2577
CCOc1ccc(C(=O)Nc2ccc3c(c2)OCCO3)cc1[N+](=O)[O-]	-23	5	-1	4	1.6	1	4161
COc1cc(OC)nc(NC(=O)NS(=O)(=O)c2ccccc2Cl)n1	-33	3	10	3	5.2	5	4184
Cc1ccc(NC(=O)NC2(C(=O)NCc3ccccc3)CCCCC2)cc1	-8	6	1	16	-0.4	3	7883
Cc1ccc(S(=O)(=O)N(C)C)cc1NC(=O)COC(=O)C1CC1	-16	7	1	2	2.6	-3	6422
Cc1ccc(C(CNC(=O)Nc2ccc(Cl)cc2)N2CCN(C)CC2)cc1 (stereo unspecified)	-12	16	7	6	0.8	7	4701
NNC(=S)NCc1ccc2c(c1)OCO2	-16	7	-9	6	2.4	-2	2498
CCOC(=O)CNC(=O)CNC(=O)c1nn(-c2ccc(OC)c(OC)c2)c(=O)c2ccccc12	12	2	10	2	1.4	0	3731
Cc1cccc(-c2cc(C(=O)NCc3ccccn3)c3ccccc3n2)c1	-23	10	6	5	2.3	3	2430
O=C(c1cc(Cl)nc2ccccc12)N1CCN(Cc2ccc3c(c2)OCO3)CC1	-14	20	8	4	2.5	·	3844
COc1cccc(/C=N/Nc2nc3ccccc3[nH]2)c1OC	-70	·	·	·	·	-2	6759
O=[N+]([O-])c1cc(-c2ccc(/C=N/c3nc4ccccn4c3-c3ccco3)o2)ccc1Cl	-42	·	·	·	·	6	4125
COc1ccc(C(NC(C)=O)c2nccc3cc(OC)c(OC)cc23)cc1OC (stereo unspecified)	-18	-13	7	5	1.9	9	4107
O=C(CCN(NC(=O)c1ccccc1)C1=NS(=O)(=O)c2ccccc21)NC1CCCCC1	-8	8	9	-2	4.6	-11	2495
O=C(O)CN1C(=O)CNC1=O	-13	4	2	0	7.5	-4	4455
CCC(C(=O)NCc1ccco1)n1nc(C)c2c(C)n(-c3ccccc3)nc2c1=O (stereo unspecified)	-5	13	6	7	-2.0	1	5663
COc1cc2c(cc1OC)[C@@]13CCN4CC5=CCO[C@H]6CC(=O)N2[C@H]1[C@H]6[C@H]5C[C@H]43	-54	·	·	-1	1.9	2	5014
O=C1C(=O)N(CCS(=O)(=O)c2ccccc2)c2ccccc21	-13	10	6	6	7.7	0	5555
CC1CC(C)CN(S(=O)(=O)c2ccc(C(=O)N3CCCC3)cc2)C1 (stereo unspecified)	-17	2	-4	0	3.0	-18	4479
COC(=O)C1=C(c2ccccc2OCc2ccccc2)CC2CCC1N2C(=O)NCCc1ccc(F)cc1 (stereo unspecified)	·	2	6	-14	-7.4	·	·
COc1ccc(Cn2ccnc2SCC(=O)Nc2cccc(NC(C)=O)c2)cc1	-31	3	0	-1	-0.1	-1	3236
CCCCN(Cc1ccccc1)S(=O)(=O)c1ccc2[nH]c(=O)oc2c1	-18	5	0	11	16	9	2957
CC(=O)c1cc2c(cc1N/C(=N/S(=O)(=O)c1ccc(Br)cc1)c1ccccc1)OCO2	15	4	2	1	0.7	-1	4314
COCCN=C(NS(=O)(=O)c1cccs1)c1ccccc1Cl	-3	25	48	5	5.5	·	3434
CC(C)(C)NC(=O)CSc1nc2ccccc2n1-c1ccccc1	-16	·	·	-4	-3.2	-8	4780
CN(C)c1ccc(C=NNC(=O)c2nonc2N)cc1[N+](=O)[O-]	·	3	-5	2	1.0	·	·
Nc1ccc(S(=O)(=O)NNC(=O)C(=O)NNc2ccccc2)cc1	-2	17	3	10	0.1	-3	7006
O=C(COC(=O)CSc1nnc(-c2ccc(Cl)cc2)o1)Nc1cc(Cl)cc(Cl)c1	-21	3	6	-5	0.2	-5	2498
[N-]=[N+]=NCCC=CC1NS(=O)(=O)OCC1O (stereo unspecified)	·	7	8	0	4.2	·	·
Cc1ccc(SCC2=NN(c3nc(C)cc(C)n3)C(=O)C2)cc1	8	14	9	10	1.6	8	3119
c1ccc(-c2csc(Cc3nnc4n3CCCCC4)n2)cc1	-12	9	4	3	4.8	3	10751
Cc1ccc(OCC(=O)NNC(=S)NC(=O)C(C)(C)C)c(Br)c1	-26	10	14	13	14	12	3381
CSc1ccc(-c2nc3cnccn3c2Nc2ccc3c(c2)OCO3)cc1	-1	9	10	-10	-2.5	-10	3514
CC(=O)N(C)c1cccc([N+](=O)[O-])c1	-19	4	5	5	0.1	-4	2448
CCN(c1ccccc1)S(=O)(=O)c1nnc(NC(=O)C(C)(C)C)s1	-9	-11	-6	2	0.5	-1	3006
COc1ccc(OC)c(S(=O)(=O)N2CCN(c3ccccc3)CC2)c1	-50	23	9	10	3.3	2	3081
Cc1ccc(S(=O)(=O)Nc2cc(=O)[nH]c(SCC(=O)Nc3cccc(C)c3)n2)cc1	-9	12	6	10	4.3	-2	3714
COCCOC(=O)c1c(NC(=O)COC(=O)c2ccc(C)o2)sc(C(N)=O)c1C	-14	6	1	-1	4.2	·	3937
COC(=O)c1ccc(NC(=O)c2cccnc2)cc1	-28	-2	10	1	-0.1	-24	4059
Cc1[nH][nH]c(=O)c1C(c1cc2c(cc1Br)OCO2)c1c(C)[nH][nH]c1=O	-27	-2	2	2	1.8	-1	4323
COc1ccc(CN2CCN(c3ncccn3)CC2)c(OC)c1	-4	-2	3	-2	1.4	-2	22491*
CCOC(=O)C1C(=O)CC(C)(O)C(C(=O)OCC)C1c1ccc(Br)cc1 (stereo unspecified)	-13	1	8	-10	-9.1	4	3374
COc1ccccc1NC(=S)NC(=O)c1c(-c2ccccc2Cl)noc1C	-19	-3	3	-3	-7.0	7	2747
Cc1ccc(OCc2cc(C(=O)NCc3cc(F)ccc3C)no2)cn1	-17	8	9	4	0.7	-2	5387
O=c1[nH]cccc1-c1nc2cc(Cl)ccc2n1Cc1ccccc1	-22	4	2	1	-1.6	9	4094
Cc1ccc(-c2cn3c(=S)[nH]nc3s2)cc1	-4	5	3	-1	6.1	-3	2563
COc1cc(C(=O)OC2CCOC2=O)cc(Cl)c1OC (stereo unspecified)	9	9	4	4	6.3	0	2965
Cc1nn(Cc2ccc(Cl)cc2Cl)c(Cl)c1C(=O)Nc1ccc(OC(F)F)cc1	-9	17	4	-5	5.5	-2	2478
Cc1c(N(C)S(=O)(=O)c2ccc(Cl)c(C(=O)NCC3CCCO3)c2)c(=O)n(-c2ccccc2)n1C (stereo unspecified)	-27	4	11	6	3.2	·	4037
O=C(CSc1nnnn1-c1ccccc1F)Nc1nc2ccccc2s1	-7	4	5	-7	3.2	-6	7254
c1ccc(OCc2nnc3sc(C4COc5ccccc5O4)nn23)cc1 (stereo unspecified)	-3	·	·	-8	15	9	6062

Next part
SMILES	PrP 5UTR inh	Mtb hypoxia inh	Mtb hypoxia inh growth	ugtP null kill	RN4220 kill	BJeLR lethal	Autofluor counter
CCOc1ccc(C(C(=O)NC2CCCC2)N(C(=O)CNC(=O)c2ccco2)c2cccnc2)cc1 (stereo unspecified)	-12	7	11	6	-2.1	6	6070
CN(C)n1cccc1/C=C(\C#N)S(=O)(=O)c1cccc(Cl)c1	-11	6	-6	1	4.5	-1	6219
COC(=O)c1ccc(/C=C/c2c(-c3ccc(OC)cc3)oc3ccc(N4CCOCC4)cc23)cc1	-20	·	·	·	·	-5	4311
COc1ccccc1C(=O)NCC(=O)NCCc1ccc(Cl)cc1	-14	-2	-3	-5	1.8	-3	4337
Cc1cc(C)c2oc(C(=O)N3CCN(Cc4ccccc4)CC3)cc(=O)c2c1	-16	2	4	6	1.3	-3	3782
CCc1cc(Cn2nc(-c3ccccc3)cc2C(=O)NCCOC)on1	-20	6	17	-17	-1.3	-11	4035
C/C(N)=C(/C#N)C(=O)CSc1nncn1-c1ccccc1	-8	2	-3	7	2.7	13	5984
O=C(NNc1nc2c(F)cc(F)cc2s1)c1ccccc1	2	3	13	4	-1.0	-3	4588
Cc1cc(S(=O)(=O)c2cc3ccc(O)c(C)c3oc2=O)ccc1F	-10	-9	8	6	1.9	0	3928
CCN(C(=O)CN1C(=O)/C(=C/c2ccccc2)SC1=S)C1CCS(=O)(=O)C1 (stereo unspecified)	-13	4	12	-6	-2.7	5	5194
COCCN(C(=O)COC(=O)CNC(=O)c1cccs1)c1c(N)n(Cc2ccccc2)c(=O)[nH]c1=O	-13	-1	-8	0	1.5	6	6403
CC1(C)C(=O)Nc2ccccc2N1C(=O)COc1ccc(C#N)cc1	-2	4	6	1	4.1	·	3242
O=C(CSc1oc(-c2ccco2)nc1S(=O)(=O)c1ccc(F)cc1)NCC1CCCO1 (stereo unspecified)	1	8	0	6	3.5	-3	11285
Cc1cc(C(=O)N=Nc2c(O)n(C)c3ccccc23)c(C)o1	-57	1	5	-2	-2.2	9	2542
COc1cc(C=NNC(=O)c2ccc3c(c2)OCCO3)cc(Cl)c1O	·	0	-6	8	3.9	·	·

Compound profiles (already shown):
O=C(O)CN1C(=O)CNC1=O as listed: PrP 5UTR inh: -13; Mtb hypoxia inh: 4; Mtb hypoxia inh growth: 2; ugtP null kill: 0; RN4220 kill: 7.5; BJeLR lethal: -4; Autofluor counter: 4455
Nc1ccc(S(=O)(=O)NNC(=O)C(=O)NNc2ccccc2)cc1 as listed: PrP 5UTR inh: -2; Mtb hypoxia inh: 17; Mtb hypoxia inh growth: 3; ugtP null kill: 10; RN4220 kill: 0.1; BJeLR lethal: -3; Autofluor counter: 7006
COC(=O)c1ccc(/C=C/c2c(-c3ccc(OC)cc3)oc3ccc(N4CCOCC4)cc23)cc1 as listed: PrP 5UTR inh: -20; Mtb hypoxia inh: ·; Mtb hypoxia inh growth: ·; ugtP null kill: ·; RN4220 kill: ·; BJeLR lethal: -5; Autofluor counter: 4311

Later entries.
SMILES	PrP 5UTR inh	Mtb hypoxia inh	Mtb hypoxia inh growth	ugtP null kill	RN4220 kill	BJeLR lethal	Autofluor counter
O=C(CCN1CCN(c2ccccc2F)CC1)Nc1ccc2c(c1)OCO2	-25	-5	-5	-1	-2.9	8	10568
COc1cccc(-c2nc(CS(=O)(=O)CC(=O)Nc3ccc(C(C)=O)cc3)c(C)o2)c1	-44	3	-2	0	-1.3	0	6144
CCCCNC(=O)c1cc2ccccc2s1	-40	·	·	13	5.7	5	2343
CCOc1ccc(NC(=O)c2cc3c(=O)n(C)c4ccccc4c3n2C)cc1	-2	·	·	1	11	1	18920*
O=C1C(=O)N(CCCn2ccnc2)C(c2cccc(Br)c2)/C1=C(\O)c1ccc2c(c1)OCCO2 (stereo unspecified)	-10	4	11	2	1.4	1	4289
C(=NN1CCN(C(c2ccccc2)c2ccccc2)CC1)c1ccc2c(c1)OCO2	·	16	14	-10	27	·	·
CCCC[C@@H]1CCCO[C@@](C(=O)NCc2ccccn2)(C(F)(F)F)C1	-11	·	·	·	·	3	3027
CSc1ccc(C=NNC(=O)c2cc(O)cc(O)c2)cc1	·	10	3	-5	4.9	·	·
COc1ccc(-c2cnc(SCC(=O)Nc3ccc4c(c3)OCO4)n2Cc2ccco2)cc1	-9	-1	-4	4	-6.7	6	4091
COc1ccc(N=c2cc(-c3ccc(O)cc3)oc3ccccc23)cc1	-9	2	11	-3	-6.2	2	2538
